PMP22 txn prim = modulators of PMP22 gene transcription in S16 Schwann cells; S16 Pmp22-F2sN Schwann cells (luciferase reporters placed in the Pmp22 gene), FLuc/NLuc coincidence luminescence, 24 h; Potency, µM (top dose mostly 57.5 µM), without a hit: top-dose activity change, negative = inhibition, actives largely listed as inhibitors; 2% of 43,000 active; active = clear falling dose curves in both reporters; inconclusive = both reporters move, but less clearly or upward; inactive = either reporter flat; the % is the NLuc reporter signal; further: on the % scale 0 is the no-effect control and ±100 the full control effect; some results filed as inactive show a strong effect at the top dose
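Transcriptional readout in edited S16(c9) cells: two luciferases reported from the Pmp22 locus, measured in turn after 24 h compound incubation.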
HTT prom inh = inhibitors of huntingtin promoter activity. 0.93% of 48,000 active. Potency, µM (series often up to 57.5 µM), without a hit: top-dose activity change, negative = inhibition, hits mostly inhibitors. HEK293 HTT promoter firefly luciferase reporter (activity 0% = vehicle and -100% = no light), 24 h. AID 1508623; active means well fitted inhibition curve with a large enough effect; inconclusive means small, poorly fitted or top-dose-only effect; inactive means no such curve, though single readings can be large or run the other way; further: nearly all actives have a fitted effect of over 50% in size
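Firefly luciferase signal from promoter-reporter HEK293 cells was scaled between vehicle (0%) and zero RLU (-100%). Compounds were tested at final concentrations of up to 57.5 uM over 24 h at 37 degrees C. PTC124 at 50 uM final served as control inhibitor.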
Starred values were filed as active, the others as inactive; ? = inconclusive; · = no result given; & = joins results of further samples; [ ] = another dose, or the depositor's remark. Potency means the concentration at half of the fitted maximal effect.

SMILES	PMP22 txn prim	HTT prom inh
CCOc1ccc(N2CC(NC(=O)CCc3ccccc3)CC2=O)cc1 (centres undefined)	5.9%	5.3%
CCOC(=O)c1cc(-c2ccccc2)n(-c2cccc(C(=O)Nc3ccc(F)c(F)c3)c2)c1C	?	?
Cc1ccc(-n2nc(C(=O)N3CCN(c4cc(Cl)ccc4C)CC3)c3c4ccccc4n(C)c3c2=O)cc1	0.2%	-5.5%
COc1cc(OC)cc(C(=O)N2CCC(c3ccncc3)CC2)c1	2.0%	-10.8%
CCN(C(=O)CCS(=O)(=O)c1ccc2c(c1)CCN2C(C)=O)c1cccc(C(F)(F)F)c1	-8.0%	-8.2%
Cc1cccc(N(C)C(=O)c2cc3c(=O)oc4ccc(C)cc4c3s2)c1	-8.3%	-8.1%
COc1ccc2cc(CNc3ccccc3)c(=O)n(CC(=O)Nc3ccc(C)cc3C)c2c1	-17.6%	-23.8%
Cc1cc2ccccc2n1CCNC(=O)c1cc(C(F)(F)F)cc(C(F)(F)F)c1	-9.1%	-24.4%
Cc1ccccc1OCCSc1nc2ccc(NC(=O)c3ccccc3)cc2s1	?	?
Cc1ccc(Nc2c(-c3ccccn3)nc3ccc(Br)cn23)cc1	?	-10.4%
COc1ccc(CNC(=O)CN(c2cc(C)cc(C)c2)S(=O)(=O)c2c(C)[nH]c(=O)[nH]c2=O)cc1	1.5%	-5.1%
CC(=O)c1ccc(N2CCN(C(=O)CCCCn3c(=O)[nH]c4ccsc4c3=O)CC2)cc1	?	-2.4%
CCc1ccc2ncc(C(=O)c3ccc(C)c(C)c3)c(N3CCC(C(N)=O)CC3)c2c1	13.4µM*	-16.4%
CCn1c(CNC(=O)c2ccc(OC)cc2)nnc1SCC(=O)Nc1cccc(C)c1C	-6.3%	-1.9%
CN1[C@@H]2CCC[C@@H]1CC(NC(=O)c1nn(C)c3ccccc13)C2 (some centres undefined)	·	-5.7%
COc1cccc(C(=O)NCc2ccc3c(c2)CCN3C(=O)c2ccncc2)c1	-0.8%	-1.5%
COc1cccc(CNC(=O)Cn2ncc3c4ccccc4n(C)c3c2=O)c1	8.0%	17.6%
COc1ccc(OCc2ccc(-c3nc(C#N)c(N4CCN(c5cccc(Cl)c5)CC4)o3)o2)cc1	23.7%	0.2%
CC(C(=O)O)c1ccc(/C=C2\CCCCC2=O)cc1 (centres undefined)	·	16.4%
O=C(NCc1ccccc1)c1ccc(NC(=O)N2CC3CCCN3c3ccccc32)cc1 (centres undefined)	?	-21.5%

Another view of part of the listing above:
SMILES | PMP22 txn prim | HTT prom inh
CCOC(=O)c1cc(-c2ccccc2)n(-c2cccc(C(=O)Nc3ccc(F)c(F)c3)c2)c1C | ? | ?
Cc1ccc(-n2nc(C(=O)N3CCN(c4cc(Cl)ccc4C)CC3)c3c4ccccc4n(C)c3c2=O)cc1 | 0.2% | -5.5%
COc1cc(OC)cc(C(=O)N2CCC(c3ccncc3)CC2)c1 | 2.0% | -10.8%
CCN(C(=O)CCS(=O)(=O)c1ccc2c(c1)CCN2C(C)=O)c1cccc(C(F)(F)F)c1 | -8.0% | -8.2%
Cc1cccc(N(C)C(=O)c2cc3c(=O)oc4ccc(C)cc4c3s2)c1 | -8.3% | -8.1%
COc1ccc2cc(CNc3ccccc3)c(=O)n(CC(=O)Nc3ccc(C)cc3C)c2c1 | -17.6% | -23.8%

The listing continues:
SMILES	PMP22 txn prim	HTT prom inh
CCOC(=O)C1CCN(C(=O)C2CCN(C3=NS(=O)(=O)C(c4ccc(C)cc4)=C3CC)CC2)CC1	-10.4%	?
Cc1cccc(N2CCN(C(c3ccccc3)c3nnc(-c4ccccc4Cl)o3)CC2)c1C (centres undefined)	-11.8%	-20.7%
Cc1ccc2nc(N3CCN(c4cccc(C)c4C)CC3)c3nnnn3c2c1	-12.7%	-9.9%
CC1CCN(c2oc(-c3cccs3)nc2S(=O)(=O)c2ccccc2)CC1	-10.2%	-28.1%
Cc1ccc(NC(=O)C2CCCN(S(=O)(=O)c3c(C)nn(C)c3C)C2)c(C)c1 (centres undefined)	-23.4%	-18.5%
CCOc1ccc(NC(=O)CCNS(=O)(=O)c2ccc3c(c2)oc(=O)n3C)cc1	1.6%	-9.8%
CCOc1ccc(-c2nnc(SCC(=O)NCc3ccc(Cl)cc3)o2)cc1	-21.5%	?
COc1ccc(NC(=O)CCCn2nc(C)c3sc4ccccc4c3c2=O)cc1	4.0%	3.9%
CCOCCCn1c(=N)c(C(=O)NC2CCCCC2)cc2c(=O)n3ccccc3nc21	?	15.4%
COC(=O)c1ccccc1NC(=O)C1(c2cccs2)CCOCC1	-16.1%	-7.2%
COc1ccc(Br)cc1CNC(=O)CSc1n[nH]c(-c2ccccc2)n1	?	?
O=C(O)c1ccc(-c2cc3cccnc3c(-c3ccc4nonc4c3)n2)cc1	·	10.8%
CCOC(=O)c1cc(OC(=O)c2cccc(Cl)c2)n(-c2ccccc2)n1	-13.8%	-6.6%
CCCCNC(=O)C1CCC(Cn2c(=O)c3sccc3n(Cc3ccccc3)c2=O)CC1 (centres undefined)	-11.0%	4.1%
Cc1ccc(CNC(=O)CSC2=Nc3ccccc3C3=NC(C)C(=O)N23)cc1 (centres undefined)	-13.9%	-30.0%
NCCS(=O)(=O)O	·	4.0%&-4.8%
CCC1CN(C(=O)N2CCC(C(=O)NCc3cccc(C)c3)CC2)c2ccccc2O1 (centres undefined)	?	-24.9%
Cc1nc2ccc(S(=O)(=O)NCC(=O)Nc3ccc(C)c(Cl)c3)cc2s1	?	-11.8%
CCOC(=O)C1CCC(CN(Cc2cccc(Br)c2)S(=O)(=O)c2ccc(C)cc2)CC1 (centres undefined)	-7.6%	?
CCOc1nc(-c2ccccc2)ccc1-c1noc(-c2ccc(C)cc2)n1	0.0%	-12.6%

Structural class: the entries above with a COOH group
SMILES	PMP22 txn prim	HTT prom inh
CC(C(=O)O)c1ccc(/C=C2\CCCCC2=O)cc1 (centres undefined)	·	16.4%
O=C(O)c1ccc(-c2cc3cccnc3c(-c3ccc4nonc4c3)n2)cc1	·	10.8%

Remaining list, next part.
SMILES	PMP22 txn prim	HTT prom inh
CCc1ccc(NC(=O)c2ccc(F)c(S(=O)(=O)N3CCN(c4ccc(OC)cc4)CC3)c2)cc1	-59.7%	?
COc1ccc(NC(=O)c2oc3ccccc3c2NC(=O)c2cccc(F)c2)c(OC)c1	?	-9.9%
CCOc1ccc(-c2nonc2NC(=O)c2ccccc2C)cc1	-5.5%	-12.9%
COc1ccc(NC(=O)c2[nH]nc3c2CSc2ccccc2-3)c(OC)c1	-3.4%	1.0%
CCc1cccc(CC)c1NC(=O)c1cc(S(=O)(=O)N2CCc3ccccc32)cn1C	-5.6%	-22.2%
Cc1ccccc1-c1noc(-c2cc(-c3ccc(F)cc3)n[nH]2)n1	-14.3%	23.9%
CCOc1cc(C(=O)N2CC(=O)Nc3ccc(F)cc3C2c2ccccc2)cc(OCC)c1OCC (centres undefined)	18.0%	-15.7%
Cc1cccc(NC(=O)c2c(NC(=O)c3ccccc3)sc3c2CCC3)c1	-15.1%	27.4%
Cc1nn(CC(=O)N2CCN(c3ccc(Cl)cc3)CC2)c(=O)c2cccn12	-2.3%	2.9%
Cc1cccc(N2CCN(S(=O)(=O)c3c(C)[nH]c(=O)[nH]c3=O)CC2)c1C	6.5%	-16.6%

Random excerpt: 2 records from the list, in no set order.
SMILES	PMP22 txn prim	HTT prom inh
Cc1cccc(N2CCN(S(=O)(=O)c3c(C)[nH]c(=O)[nH]c3=O)CC2)c1C	6.5%	-16.6%
CCc1ccc(NC(=O)c2ccc(F)c(S(=O)(=O)N3CCN(c4ccc(OC)cc4)CC3)c2)cc1	-59.7%	?

Next section.
SMILES	PMP22 txn prim	HTT prom inh
Cc1ccc(C)c(N2CCN(CCCNc3ncnc4onc(-c5ccc(Cl)cc5)c34)CC2)c1	-29.2%	-11.7%
CCOc1ccc(-c2cc(OC(=O)c3ccccc3)c3c(C)oc(C)c3c(=O)c2)cc1	?	?
COc1ccccc1CNC(=O)C(=O)NCC(c1cccs1)S(=O)(=O)c1ccccc1 (centres undefined)	?	-34.4%
Cc1cccc(CNC(=O)C2CCN(c3nnc(-n4c(C)ccc4C)s3)CC2)c1	?	-21.2%
COc1cccc(CNC(=O)c2ccc(-c3nc(CS(=O)c4ccccc4)c(C)o3)cc2)c1 (centres undefined)	?	?
Cc1cccc(C)c1NC(=O)CCC(=O)N1Cc2ccccc2Oc2ncccc21	-16.5%	-15.5%
Cc1ccc(CN(C(=O)COc2c(C)cccc2C)C2CCS(=O)(=O)C2)o1 (centres undefined)	-17.7%	-8.1%
c1ccc(N2CCN(c3ncnc4[nH]ncc34)CC2)cc1	-41.9%	-15.4%
Cc1noc(-c2ccc(NCc3ccccc3)c([N+](=O)[O-])c2)n1	-18.1%	14.3%
Cc1ccccc1Cn1cnc2nc3c(cc2c1=O)CC(C)CC3 (centres undefined)	?	-10.2%
CCOc1ccccc1NC(=O)C1=C(C)Nc2ncnn2C1c1cccs1 (centres undefined)	-22.2%	-6.0%
COc1ccc(NS(=O)(=O)c2cc3c(cc2C)N(C(C)=O)CCO3)cc1	-6.6%	-7.4%
CCC1CN(S(=O)(=O)c2cc(-c3onc(C)c3C)ccc2C)c2cc(Cl)ccc2O1 (centres undefined)	?	?
Cc1ccc2oc(C(=O)N3CCC(c4nc5ccccc5s4)CC3)c(C)c2c1	-4.7%	-18.4%
Cc1cc(C)c2oc(C(=O)Nc3ccc(S(=O)(=O)N4CCCCC4)cc3)cc(=O)c2c1	10.6%	19.6%
CCCCCCC[N+](CC)(CC)CCCCc1ccc(Cl)cc1	·	?
Cc1noc(C)c1S(=O)(=O)N1CCCC(C(=O)Nc2ccc(C(C)C)cc2)C1 (centres undefined)	-47.3%	3.3%
COC[C@@H](c1ccc(C(F)(F)F)cc1)N1CCN(C2(C)CCN(C(=O)c3c(C)ncnc3C)CC2)C[C@H]1C	·	?
CCOc1ccc(N2C(=O)c3[nH]nc(-c4ccccc4)c3C2c2ccc(O)c(OC)c2)cc1 (centres undefined)	?	?
CC(C)C(=O)N1c2nc(-c3ccco3)nn2C2(CCCCC2)[C@@H]2CCCC[C@@H]21	-2.6%	-17.0%
COc1ccc(NC(=O)c2c(NC(=O)Cc3ccccc3)sc3c2CCCC3)cc1	-24.8%	?
COc1cccc(NC(=O)C2CCN(C(=O)N3CC(C)Oc4ccccc43)CC2)c1 (centres undefined)	0.8%	?
CC(NC(=O)CCCN1C(=O)CCn2nc(-c3cn(C)c4ccccc34)cc21)c1ccccc1 (centres undefined)	-13.7%	-9.1%
COc1ccc(NC(=O)CCc2c(C)nn(-c3ccc(N4CCOCC4)nn3)c2C)cc1Cl	6.0%	22.2%
Cc1ccc(N(Cc2cccs2)C(=O)C(C)Oc2ccc(Cl)c(C)c2)cc1 (centres undefined)	?	?
O=C(/C=C/c1ccccc1Cl)Nc1nc(-c2cccs2)ns1	-26.7%	33.3%[activator]
CC1(C)OC(=O)NC1=O	·	2.0%
Cc1ccc(C(=O)Nc2c(C(=O)NC(C)(C)C)oc3ccccc23)cc1	-10.5%	-13.8%
CC1CCCN(C(=O)c2ccc(CSc3nc4ccncc4n3Cc3ccccc3)cc2)C1 (centres undefined)	-15.8%	-23.8%
Cc1cc(N2CCN(c3cc(Cl)ccc3C)CC2)n2nc(-c3ccccc3)nc2n1	-31.1%	-3.6%
Cc1ccc(CNC(=O)c2cnc(N(C)C)nc2)cc1	1.3%	-4.3%
COc1ccccc1NC(=O)C1CCCN(c2nnc(C)c3c(C)n(-c4ccccc4)nc23)C1 (centres undefined)	-13.6%	-10.6%
O=C(Nc1ccc(F)c(F)c1)c1cc(S(=O)(=O)N2CCc3ccccc32)ccc1F	-16.5%	?
Cc1ccccc1-c1nc(CNC(=O)NC2CCCCC2)c(C)o1	48.3%	0.0%
Cc1ccc(Cc2nc3ccccc3nc2SCC(=O)Nc2ccc3c(c2)OCO3)cc1	?	-26.9%
CCOc1ccc(CNC(=O)CCCn2nc(C)c3sc4ccccc4c3c2=O)cc1	-8.9%	-1.0%
Cc1ccc2nc(NC(=O)c3cc(=O)c4cc(Cl)ccc4o3)sc2c1	0.8%	-14.2%
O=C(CCCn1c(=O)c2sccc2n(Cc2ccc(F)cc2Cl)c1=O)NCc1ccc2c(c1)OCO2	?	-0.7%
Cc1ccc2c(CC(=O)N3CCN(c4cccc(Cl)c4)CC3)coc2c1	?	-3.9%
CC(NC(=O)CSc1n[nH]c(-c2ccccc2)n1)c1nc2ccccc2n1C (centres undefined)	-7.4%	-5.2%
COc1ccc(-c2nnc(SCC(=O)c3ccc([N+](=O)[O-])cc3)o2)cc1OC	7.4%	0.7%
Cc1ccccc1OCc1nnc(SCc2cc(=O)c3cc(F)ccc3[nH]2)n1C	?	?
CC(NC(=O)c1cc2c(=O)n3ccccc3nc2n(C(C)C)c1=N)c1ccccc1 (centres undefined)	?	-20.8%
CCOC(=O)C1CCN(Cc2cn3c(-c4ccc(OC)cc4)nnc3s2)CC1	-13.2%	-3.6%
COc1cccc(CN2C(=O)C3(SCC(=O)N3c3ccc(C(C)C)cc3)c3ccccc32)c1 (centres undefined)	?	?
COc1ccc2nc(NC(=O)c3nc(S(=O)(=O)Cc4ccc(C)cc4)ncc3Cl)sc2c1	7.27µM*	-1.9%
O=C(CSc1nnc(-c2ccccc2)c(-c2ccccc2)n1)Nc1ccccc1Cl	-13.3%	?
